From PubChem BioAssay
Lassa entry inh = inhibitors of Lassa virus binding or cell entry | Lassa virus pseudotype entry inhibition, cell reporter; control for the full effect not named in the record | Potency, µM (doses to about 37.9 µM), inactives show at the highest dose activity change, negative = inhibition, most hits filed as inhibitors | hit rate 1.2% among 300,000; active means well fitted inhibition curve with a large enough effect; inconclusive means small, poorly fitted or top-dose-only effect, or effect the other way; inactive means flat fitted curve, though single readings scatter; tested in HEK293 cells; also: % is scaled to controls: 0 for no effect and ±100 for the full control effect; nearly all actives have a fitted effect of over 50% in size; luciferase read-out
SARS PLP yeast = blocks SARS-CoV papain-like protease in a yeast assay | S. cerevisiae expressing SARS-CoV PLpro, growth rescue; control for the full effect not named in the record | Potency, µM (series often up to 32.9 µM), for inactives: at the top dose activity, positive = growth rescue | hit rate 0.19% among 330,000; also: 0% is about no effect; nearly all actives have a fitted effect of over 55% in size; growth read by luminescence after 48 h
MARV entry inh = blocks Marburg virus binding to or entry into cells. hit rate 1.8% among 300,000. Potency, µM (titrated, usually from 37.8 µM), without a hit: at the top dose activity change, negative = inhibition, hits mostly inhibitors. Marburg virus pseudotyped entry inhibition, cell reporter; control for the full effect not named in the record; about a third of the inactives were read at about 46 µM; active = well fitted inhibition curve with a large enough effect; inconclusive = small, poorly fitted or top-dose-only effect, or effect the other way; inactive = flat fitted curve, though single readings scatter; tested in HEK293 cells; about a fifth of its hits are not listed in these tables; also: % is scaled to controls: 0 for no effect and ±100 for the full control effect; luciferase read-out
Cruzain Triton = cruzain (T. cruzi) inhibition with detergent | hit rate 0.43% among 200,000 | Potency, µM, without a hit: max response, negative = inhibition, actives largely listed as inhibitors | P25779 | AID 1478 | purified cruzain, Z-FR-AMC fluorescence, 0.01% Triton; active = well fitted curve in the direction sought with a large enough effect; inconclusive = small, poorly fitted or top-dose-only effect, or another doubt; inactive = no such curve, though single readings can be large; an effect the other way counts as inactive or inconclusive;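 also: plate controls were neutral wells for no effect and buffer without enzyme for full effect; nearly all actives have a fitted effect of over 40% in size; top concentration of the series not given in the record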
Target sequence (P25779 123-467 limits assumed): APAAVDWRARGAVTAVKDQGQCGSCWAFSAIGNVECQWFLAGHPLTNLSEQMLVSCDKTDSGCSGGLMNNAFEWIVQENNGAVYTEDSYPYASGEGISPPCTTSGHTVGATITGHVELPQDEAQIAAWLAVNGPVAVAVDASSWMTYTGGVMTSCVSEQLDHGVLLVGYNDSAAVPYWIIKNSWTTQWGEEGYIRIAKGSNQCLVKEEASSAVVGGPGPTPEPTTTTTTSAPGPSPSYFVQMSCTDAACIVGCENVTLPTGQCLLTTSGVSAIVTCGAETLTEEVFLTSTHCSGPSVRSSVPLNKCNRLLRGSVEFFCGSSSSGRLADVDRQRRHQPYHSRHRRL
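Purified cruzain (1.5 nM final) was preincubated with compounds for 15 min at room temperature in 100 mM sodium acetate pH 5.5, 5 mM DTT, 0.01% Triton X-100. Reaction started with 2 uM Z-FR-AMC; AMC fluorescence change over 60 s gave activity.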
2A StopGo = lowers the luciferase signal of an FMDV 2A StopGo reporter | human cells with a luciferase reporter of 2A StopGo recoding; control for the full effect not named in the record | Potency, µM (highest dose often 57.9 µM), without a hit: at the highest dose signal change, negative = less light | hit rate 1.2% among 410,000; active = well fitted falling curve with a large enough effect; inconclusive = small, poorly fitted or top-dose-only effect; inactive = no such curve, though single readings can be large or run the other way; tested in HEK293T cells; also: % is scaled to controls: 0 for no effect and ±100 for the full control effect; nearly all actives have a fitted effect of over 45% in size; luciferase light after 4 h
Cruzain inh noDet = blocks cruzain activity in detergent-free assay; purified cruzain, Z-FR-AMC fluorescence, no detergent; Potency, µM, for inactives: max response, negative = inhibition, most hits filed as inhibitors; hit rate 2.3% among 200,000; AID 1476; active = well fitted curve in the direction sought with a large enough effect; inconclusive = small, poorly fitted or top-dose-only effect, or another doubt; inactive = no such curve, though single readings can be large; an effect the other way counts as inactive or inconclusive;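 also: plate controls were enzyme without inhibitor for no effect and buffer without enzyme for full effect; nearly all actives have a fitted effect of over 40% in size; top concentration of the series not given in the record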
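Detergent-free condition (0.00005% Triton X-100) in acetate buffer pH 5.5 with DTT. 1.5 nM enzyme and compound were pre-mixed 15 min, then 2 uM Z-FR-AMC substrate added; reaction progress from fluorescence change between first and third reads (60 s).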
NS1 inh = blocks influenza NS1 protein function | S. cerevisiae slowed by influenza A NS1, growth recovery by OD600 | Potency, µM (doses to about 46.1 µM), inactives show top-dose activity, positive = more growth | hit rate 0.4% among 270,000; also: actives are rising curves; nearly all actives have a fitted effect of over 50% in size
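S. cerevisiae expressing influenza A NS1, grown in glucose, washed, then diluted 1:100 into pH 6.0 -URA galactose medium with 23 nl compound. Growth recovery read as OD600; NS1-free strain serves as control.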
RE007 growth inh = less growth of the S. pombe RE007 Vpr strain. AID 651644. S. pombe RE007 Vpr strain, BacTiter-Glo ATP luminescence, 24 h; control for the full effect not named in the record. Potency, µM (doses to about 92.2 µM), inactives show top-dose activity change, negative = less growth. hit rate 0.21% among 360,000; active = well fitted falling curve with a large enough effect; inconclusive = small, poorly fitted or top-dose-only effect; inactive = no such curve, though single readings can be large or run the other way;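 also: % is scaled to controls: 0 for no effect and ±100 for the full control effect; nearly all actives have a fitted effect of over 50% in size; the assay follows cell death caused by Vpr and the record does not say whether a fall means rescue or toxicity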
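Fission yeast strain RE007, carrying one chromosomally integrated HIV-1 vpr copy, was seeded at OD 0.01 in PMG+AL medium with 23 nL pinned compound. After 24 h at 30 °C and 99% humidity, viability was read by BacTiter-Glo luminescence.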
* hit, by the source's call; ? = inconclusive; . = not tested or not shown; [ ] = dose if it differs, or a comment. Unless noted, calls follow the shape of the dose curve; as a rule, active means well fitted rising curve with a large enough effect; inconclusive means small, poorly fitted or top-dose-only effect; inactive means no such curve, though single readings can be large or run the other way. Potency is read from the fitted curve at half-maximal effect.

mol | Lassa entry inh | SARS PLP yeast | MARV entry inh | Cruzain Triton | 2A StopGo | Cruzain inh noDet | NS1 inh | RE007 growth inh
COc1ccc(S(=O)(=O)Nc2ccc(C)cn2)cc1 | 0%[46.1 µM] | -4% | 3%[46.1 µM] | . | 56%[activator] | . | 18% | -6%
CSCCC(NC(=O)c1ccccc1)C(=O)NCc1ccc(S(N)(=O)=O)cc1 (stereo unspecified) | . | -2% | 0% | . | -11% | . | -4% | -12%
CCOC(=O)N1CCN(C(=O)CSc2nc3nc(C)cc(C)n3n2)CC1 | 22% | 3% | 22% | . | -6% | . | . | -13%
C=CCOc1cccc(/C=C/c2nc3ccccc3c(=O)[nH]2)c1 | . | 1% | . | . | 51%[activator] | . | 2% | -2%
CN(C(=O)c1ccccc1F)C(c1ccccc1)c1ccccc1 | 11µM* | 1% | ? | . | -8% | . | -21% | 11%
CC(C)c1ccc(NC2CCCN(C(=O)CC3CCCC3)C2)cc1 (stereo unspecified) | . | -6% | . | . | -7% | . | -68% | -22%
Cc1cc(Cl)ccc1C(=O)C1CCCN(C(=O)c2n[nH]c3c2CCCC3)C1 (stereo unspecified) | 0%[46.1 µM] | 0% | ? | . | -12% | . | 6% | -5%
Cc1ccc(C(=O)Oc2cccc(NC(=O)c3ccccc3)c2)cc1C | ? | -25% | ? | -4.4% | 10% | -4% | -16% | .
COc1ccc(C2NC(=O)C(=O)/C2=C(\O)c2ccc(Cl)cc2)cc1OC (stereo unspecified) | . | -1% | . | . | -1% | . | -4% | 2%
COc1ccc(C(=O)Nc2ccc(S(=O)(=O)N3CCCCC3)cc2)cc1 | -3% | -7% | -19% | -4.8% | -29% | 1% | -1% | 14%
Cn1c(Cc2cccs2)nnc1SC/C=C/c1ccccc1 | 1% | 20% | 11% | -1.8% | 35%[activator] | -4% | -9% | -12%
COC(=O)c1cc(OC)c(OC)cc1NC(=O)Cc1cccs1 | ? | -1% | -15%[46.1 µM] | . | -15% | . | 5% | 11%
COc1ccc(/C=N/N(c2ccccc2)c2ccccc2)cc1O | . | 1% | . | . | -23% | . | -57% | ?
COc1ccc(-n2nc(C(=O)NCC(=O)Nc3cc(OC)c(OC)c(OC)c3)c3ccccc3c2=O)cc1OC | -25%[46.1 µM] | 1% | ? | . | -7% | . | -14% | 0%
CC1CCN(S(=O)(=O)c2cccc(-c3cn4cc(Cl)ccc4n3)c2)CC1 | 10% | -12% | 9% | -2.8% | 0% | 1% | -26% | 5%
CCOC(=O)c1nnn(-c2nonc2N)c1-c1ccc(OC)cc1 | -7% | 2% | -2%[46.1 µM] | 0.5% | -8% | 1% | -3% | 9%
CC(NC(=O)/C=C/c1ccccc1[N+](=O)[O-])C1CC2CCC1C2 (stereo unspecified) | 1% | 1% | -6%[46.1 µM] | . | -6% | . | -6% | 23%
O=C(CC1SC(N2CCCC2)=NC1=O)Nc1ccc(C(=O)N2CCCC(C(F)(F)F)C2)cc1 (stereo unspecified) | -16% | 3% | 10% | . | 20% | . | . | 5%
O=C1C2CCCN2C(=O)N1CCCCN1CCN(c2cccc(C(F)(F)F)c2)CC1 (stereo unspecified) | . | 8% | . | . | -4% | . | -2% | -22%
CCc1ccc(NC(=O)CSc2nnc(CNC(=O)c3ccc(OC)cc3)o2)cc1 | 16%[46.1 µM] | 8% | -12%[46.1 µM] | . | 2% | . | 14% | 0%
Cc1ccnc(SCCn2c(N3CCN(C)CC3)nc3c2c(=O)[nH]c(=O)n3C)n1 | . | 2% | . | 2.2% | . | -9% | ? | .
COc1ccc(C)cc1Nc1n[n+](C)c(-c2ccc(O)cc2O)s1 | . | -6% | . | . | 0% | . | 6% | -3%
CCOCCCNC(=S)N(Cc1ccco1)Cc1cc2cc3c(cc2[nH]c1=O)OCCO3 | ? | -1% | -20%[46.1 µM] | . | -18% | . | -1% | 4%
O=C(c1ccc(F)cc1)C1CCN(C(=O)NC2CCCCC2)CC1 | -13% | -3% | -20% | 2.2% | -23% | 4% | -3% | -10%
COc1ccc(N=CC2=C(O)CC(C)(C)CC2=O)cc1 | 16% | 13µM* | -15%[46.1 µM] | -5.7% | 25% | 1% | -15% | 48%
COc1ccc(N(C)S(=O)(=O)c2cccc3cccnc23)c(OC)c1 | ? | -5% | -14% | 1.7% | 0% | 7% | 1% | -9%
Cc1c(OCC(=O)NCCCn2ccnc2)ccc2c3c(c(=O)oc12)CCC3 | . | -1% | . | . | 8% | . | 2% | -19%
COc1ccc2cc(CN(Cc3ccco3)C(=S)NCC3CCCO3)c(=O)[nH]c2c1 (stereo unspecified) | ? | 1% | ? | . | 0% | . | 4% | -12%
CN1CCN(S(=O)(=O)c2cccc(C(=O)Nc3ccccc3N3CCCCC3)c2)CC1 | 3% | 3% | -13% | . | -17% | . | . | -12%
COc1cccc(CN(CC2CCCO2)S(=O)(=O)c2ccc(-n3cnnn3)c(OC)c2)c1 (stereo unspecified) | -20% | 0% | 3%[46.1 µM] | . | -2% | . | -9% | 4%
O=C(Nc1ccccc1C(=O)O)/C(=C/c1ccc([N+](=O)[O-])cc1)NC(=O)c1ccc(Br)o1 | 6% | 4% | 6%[14.2 µM] | . | 0% | . | . | -2%
Cc1cccc(Sc2c(C=O)c3ccccc3n2C)c1 | -22% | -12% | -8% | -0.3% | -27% | 2% | -32% | -23%
COc1ccc(C(=O)OCC(=O)N(C)C2CCS(=O)(=O)C2)cc1S(=O)(=O)N(C)Cc1ccccc1 (stereo unspecified) | 6% | -1% | ? | . | -16% | . | . | -23%
CN(C)/C=C(\C#N)C(=O)Nc1ccc(F)c(Cl)c1 | . | -1% | . | . | 56%[activator] | . | 3% | -8%
O=C(COC(=O)C12CC3CC(CC(C3)C1)C2)NC12CC3CC(CC(C3)C1)C2 | -25% | -3% | -11% | -2.2% | 0% | -8% | -50% | 21%
O=C(CCCC1=NS(=O)(=O)c2ccccc2N1)NCCc1ccc(Cl)cc1 | -1%[46.1 µM] | 1% | -1%[46.1 µM] | . | 11% | . | -6% | 14%
COc1ccc(Cl)cc1NS(=O)(=O)c1cccc(C(=O)NCC(c2ccco2)N2CCCC2)c1 (stereo unspecified) | ? | 3% | -27% | . | 24% | . | . | -5%
C#CCOc1c(Br)cc(C2C(C(=O)OC)=C(C)NC3=C2C(=O)c2ccccc23)cc1OCC (stereo unspecified) | -13%[46.1 µM] | . | ? | -3.6% | ? | 2% | . | .
Cc1nc2nc(SCC(=O)NCCc3ccc(Cl)cc3)nn2c(C)c1Cc1ccccc1 | -16%[46.1 µM] | . | ? | -5.5% | -3% | ? | . | .
CCOc1ccc(S(=O)(=O)Nc2ccc(C(=O)N3CCCC3)cc2)cc1C(N)=O | . | -2% | . | . | 5% | . | -7% | 2%
COc1ccc(-c2n[nH]c(=S)n2-c2ccc3c(c2)OCCO3)cc1 | -1% | 14% | 5% | -5.4% | 11% | -11% | 13% | 4%
CN1CCN(S(=O)(=O)c2ccc3[nH]cc(C(=O)O)c(=O)c3c2)CC1 | -30%[14.3 µM] | 0% | -23% | -2.1% | -1% | -9% | 9% | 11%
Cc1cccc(C(=O)N2CCc3cc(CNC(=O)c4ccco4)ccc32)c1 | 20%[46.1 µM] | . | . | 0.9% | 28µM* | 7% | . | .
O=C(CSC1CCCCC1)Nc1ccccc1Br | 0% | 9% | 13% | -5.4% | 21% | -7% | 3% | -14%
CC(=O)Cn1c(CN2CCN(C(=O)c3ccco3)CC2)nc2c1c(=O)n(C)c(=O)n2C | . | -5% | . | . | -14% | . | 0% | 8%
COc1ccc(-n2ncc3c2CC(C)(C)CC3NC(=O)CCc2c(C)noc2C)cc1 (stereo unspecified) | ? | ? | 0% | . | 4% | . | -4% | 1%
CCOC(=O)c1c(NC(=O)c2ccccc2Cl)sc2c1CCCC2 | ? | . | . | -1.3% | -12% | -14% | . | .
Cc1cc(NS(=O)(=O)c2ccc(NC(NC(=O)C(C(F)(F)F)C(F)(F)F)(C(F)(F)F)C(F)(F)F)cc2)no1 | -4% | -20% | 0% | -3.7% | -26% | -3% | 17% | -1%
Cc1ccc(Cl)cc1NC(=O)CSc1sc2c(O)cc(=O)[nH]c2c1C#N | 17% | 5% | 2%[46.1 µM] | . | -10% | . | 4% | 0%
O=C(Cn1cnc2ccccc2c1=O)c1ccc2c(c1)OCCO2 | ? | -5% | ? | -3.5% | 21% | -10% | -66% | 12%
Cc1nnc2ccc(-c3ccc(NC(=O)c4cccnc4Cl)cc3)nn12 | -24%[46.1 µM] | -1% | -25%[46.1 µM] | . | 0% | . | . | -2%
CCOC(=O)c1c(C)c(-c2ccccc2)n(CC(=O)N2CCCC2)c1C | . | -3% | 1% | 0.4% | -12% | ? | -34% | -5%
Cc1c(N=Cc2c(O)n(Cc3ccccc3)c(=O)[nH]c2=O)c(=O)n(-c2ccccc2)n1C | -8% | ? | 6% | -6.2% | -13% | 16% | 14% | 4%
O=C(COC(=O)c1cc(S(=O)(=O)N2CCCC2)ccc1O)Nc1ccccc1Br | 11% | -4% | ? | . | 2% | . | . | 3%
COc1ccc(NC(=O)C2CCC(CNS(=O)(=O)c3cccc4nsnc34)CC2)cc1OC (stereo unspecified) | -3%[46.1 µM] | . | 13%[46.1 µM] | -1.1% | -20% | -5% | . | .
CCN(CC)C(=O)Cn1cc(C(=O)C(=O)NCc2ccccn2)c2ccccc21 | 16%[46.1 µM] | 29% | 4%[46.1 µM] | . | 18% | . | 10% | -7%
COCCOC(=O)c1c(N)n(Cc2ccc(OC)cc2)c2nc3ccccc3nc12 | 0% | -4% | -4% | -6.3% | -10% | ? | -125% | 20%
N#CC1=C(N)C(C#N)(C#N)[C@H](c2ccoc2)[C@H]2CN(Cc3ccccc3)CC=C12 | -17% | -1% | 6.3µM* | -14% | ? | -13% | -9% | -25%
CCOc1ccc(CCNC(=O)c2ccc(C)c(-n3cnc4cccnc43)c2)cc1 | -20%[46.1 µM] | . | . | -6.0% | -19% | 14% | . | .
CCCNC(=O)CN1C(=O)COc2ccc(S(=O)(=O)N3CCCC3)cc21 | 1%[46.1 µM] | . | 11%[46.1 µM] | 2.9% | -8% | -8% | . | .
